# Bead autofluor = counter-screen for toxin protease inhibitors: compound fluorescence | fluorescence intensity (concentration not given with the values) | 360,000 compounds, 3.1% hits | AID 624483 | compound autofluorescence counterscreen, microsphere flow cytometry; stronger effect = higher value;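 active = at least 3 SD above the mean of all compounds, about 16000 in these data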;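 note: 100 nL of 1 mM stock went into each well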
# PrP 5UTR inh = inhibition of PrP 5' UTR reporter expression; cell-based PrP 5' UTR mRNA reporter, plate reader; inhibition, % (test concentration not listed); 340,000 compounds, 0.35% hits; AID 488862, 2010;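 active = every replicate at 50% or more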;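 note: 0 = median of the neutral control wells; tested in H4 reporter cells; numbers are from one replicate; inactives centre near -14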
# Mtb hypoxia inh = PubChem AID 1159583 | M. tuberculosis hypoxia-regulated fluorescent reporter, fluorescence | fluorescence inhibition, % (no concentration beside the values) | 300,000 compounds, 0.1% hits;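 active = 35 to 45% if threefold the growth effect, above 45% if 1.5-fold the growth effect; inactive = the rest, general growth blockers included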;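 note: wells of about 50 µL received 100 nL stock; 0% = vehicle wells and 100% = reference inhibitor wells; whole bacteria with a GFP reporter of the hypoxia response; strong numbers were not always called active; many hits fall short of the cut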
# Sa RN4220 lethal = growth inhibition of S. aureus RN4220, primary screen, OD600. 16 h. 330,000 compounds, 0.33% hits. inhibition, % (test concentration not listed);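 active = z-score of -3 or lower and OD600 up to 0.18 on both plates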;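 note: plate controls were untreated cells for no effect and reference antibiotic for full effect; stock transfer was 100 nL into about 80 µL; one replicate is shown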
# BJeLR lethal = MLPCN primary cell-based screen for lethality selective to Ras in HRASV12 cells; inhibition, % (concentration not given with the values); AID 1554, 2009; BJeLR (HRASV12) viability, CellTiter-Glo ATP luminescence, 48 h; reference of the scale not given here; 300,000 compounds, 0.17% hits;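 active = replicate mean above 50%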;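 note: 50 nL library stock added to about 25 µL; numbers are from one replicate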
# ugtP null kill = growth inhibition of ugtP-null S. aureus, primary screen, RN4220 ugtP deletion, OD600 | 16 h; some inactives read as strong as hits | growth inhibition, % (test concentration not listed) | 330,000 compounds, 0.54% hits | AID 1259309, 2017;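 active = z-score under -3 and OD600 up to 0.15 on both plates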;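 note: plate controls were untreated wells for no effect and antibiotic for full effect; wells of about 80 µL received 100 nL stock; the first replicate is given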
# Mtb hypoxia inh growth = further read-out of Mtb hypoxia inh, marked with its call; growth inhibition, %; measured here: M. tuberculosis growth (absorbance);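 0% = vehicle and 100% = reference antibiotic; read after six days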
# * hit, by the source's call; x = no result given. This is a random part of the collection. About 4.1% of those tested had a hit in this group.
item	SMILES	Bead autofluor	PrP 5UTR inh	Mtb hypoxia inh	Mtb hypoxia inh growth
1	COc1ccc(C(=O)NN=C(c2ccccc2)c2ccccn2)cc1	x	x	-2	6
2	O=C(CSc1ccccc1C(=O)NCc1ccccc1)NC1CCCCCCC1	2801	-19	2	-1
3	C[C@H](NC(=O)c1nc[nH]c1C(=O)N[C@@H](CCCCNC(=O)OC(C)(C)C)C(=O)OC(C)(C)C)c1ccccc1	4042	-12	x	x
4	O=C(/C=C/c1ccc(F)cc1)NC(=S)Nc1ccccc1	3887	-9	9	3
5	COCCn1c(=O)[nH]c(=O)c2c(C(F)(F)F)cc(-c3cccs3)nc21	2469	-25	12	-5
6	O=C(O)CCC1(CCC(=O)O)CCCC(CCC(=O)O)(CCC(=O)O)C1=O	2851	-13	19	13
7	CCNc1nc(NCC)n2c(SCC(=O)N(CC)C3CCCCC3)nnc2n1	1964	7	4	1
8	CCn1c(CCNC(=O)c2ccc(Cl)cc2Cl)n[nH]c1=S	10559	-8	-4	4

item	Sa RN4220 lethal	BJeLR lethal	ugtP null kill
1	16	x	-16
2	-1.2	-7	4
3	x	0	x
4	-0.4	1	5
5	4.1	2	14
6	1.3	x	5
7	5.2	-3	8
8	-0.9	0	-5

# (next part)
item	SMILES	Bead autofluor	PrP 5UTR inh	Mtb hypoxia inh	Mtb hypoxia inh growth
9	CC(C)C(=O)Nc1cccc2nsnc12	7542	-13	15	9
10	CCN(CC)S(=O)(=O)c1ccc(Cl)c(NC(=O)COC(=O)c2cc(-c3ccccc3Cl)nc3ccccc23)c1	2102	-42	7	1
11	Cc1cc(/C=N/O)c(C)n1-c1ccc(Br)cc1	2754	-11	x	x
12	Brc1cccc(OCCCCN2CCCCC2)c1	2936	-18	10	7
13	O=C(Cc1csc(N2CCOCC2)n1)NN=Cc1ccccc1C(=O)O	x	x	0	-2
14	CSc1nc2c([nH]1)c(=S)n(C)c(=O)n2C	3768	-7	2	16
15	C=CCC(Nc1ccco1)c1ccccc1 (stereo unspecified)	3451	-8	-11	-2
16	COc1ccccc1/C=C(\C)C(=O)c1c(C)cc(C)[nH]c1=O	3997	12	1	6

item	Sa RN4220 lethal	BJeLR lethal	ugtP null kill
9	16	-4	2
10	1.0	0	8
11	x	-9	x
12	3.7	-9	9
13	6.7	x	2
14	-1.2	x	0
15	13	-3	0
16	2.0	-1	-1

# In a second layout: entries from further up
# Every second line gives: Bead autofluor	PrP 5UTR inh	Mtb hypoxia inh	Mtb hypoxia inh growth	Sa RN4220 lethal	BJeLR lethal	ugtP null kill
1) COc1ccc(C(=O)NN=C(c2ccccc2)c2ccccn2)cc1
 : x	x	-2	6	16	x	-16
2) O=C(CSc1ccccc1C(=O)NCc1ccccc1)NC1CCCCCCC1
 : 2801	-19	2	-1	-1.2	-7	4
3) C[C@H](NC(=O)c1nc[nH]c1C(=O)N[C@@H](CCCCNC(=O)OC(C)(C)C)C(=O)OC(C)(C)C)c1ccccc1
 : 4042	-12	x	x	x	0	x
4) O=C(/C=C/c1ccc(F)cc1)NC(=S)Nc1ccccc1
 : 3887	-9	9	3	-0.4	1	5
5) COCCn1c(=O)[nH]c(=O)c2c(C(F)(F)F)cc(-c3cccs3)nc21
 : 2469	-25	12	-5	4.1	2	14
6) O=C(O)CCC1(CCC(=O)O)CCCC(CCC(=O)O)(CCC(=O)O)C1=O
 : 2851	-13	19	13	1.3	x	5
7) CCNc1nc(NCC)n2c(SCC(=O)N(CC)C3CCCCC3)nnc2n1
 : 1964	7	4	1	5.2	-3	8
8) CCn1c(CCNC(=O)c2ccc(Cl)cc2Cl)n[nH]c1=S
 : 10559	-8	-4	4	-0.9	0	-5
9) CC(C)C(=O)Nc1cccc2nsnc12
 : 7542	-13	15	9	16	-4	2
10) CCN(CC)S(=O)(=O)c1ccc(Cl)c(NC(=O)COC(=O)c2cc(-c3ccccc3Cl)nc3ccccc23)c1
 : 2102	-42	7	1	1.0	0	8
11) Cc1cc(/C=N/O)c(C)n1-c1ccc(Br)cc1
 : 2754	-11	x	x	x	-9	x
12) Brc1cccc(OCCCCN2CCCCC2)c1
 : 2936	-18	10	7	3.7	-9	9
13) O=C(Cc1csc(N2CCOCC2)n1)NN=Cc1ccccc1C(=O)O
 : x	x	0	-2	6.7	x	2
14) CSc1nc2c([nH]1)c(=S)n(C)c(=O)n2C
 : 3768	-7	2	16	-1.2	x	0
15) C=CCC(Nc1ccco1)c1ccccc1 (stereo unspecified)
 : 3451	-8	-11	-2	13	-3	0

# Following part:
item	SMILES	Bead autofluor	PrP 5UTR inh	Mtb hypoxia inh	Mtb hypoxia inh growth
17	CCOC(=O)N1CCC(N(C(=O)Nc2ccc(Cl)c(Cl)c2)C(C)CC)CC1 (stereo unspecified)	7712	-36	-5	-18
18	Cc1ccc2nc(SCC(=O)NC3CCCC3)[nH]c2c1	4973	-56	0	11
19	O=c1c2sccc2[nH]c(=S)n1Cc1ccccc1	1976	-18	0	8
20	CC1CCN(C2=NN3C(=N)/C(=C\c4ccc(OC(=O)c5ccco5)cc4)C(=O)N=C3S2)CC1	5450	-13	x	x
21	COC(=O)Cn1c(=NC(=O)C2CC2)sc2c(C)cc(C)cc21	5463	-16	12	10
22	CNP1(NC)=Nc2nn(-c3ccccc3)c(N)c2C(c2ccccc2)=N1	5685	-18	4	3
23	CC(C)NC(=O)C1CCN(C2CCN(C(=O)c3cc4c(s3)CCCCC4)CC2)CC1	6675	0	14	6
24	COC(=O)Nc1ccc([N+](=O)[O-])cc1OC	2594	-17	13	7

item	Sa RN4220 lethal	BJeLR lethal	ugtP null kill
17	1.2	-3	-33
18	0.0	11	14
19	1.4	-16	-27
20	x	-4	x
21	-6.8	-3	-3
22	-0.4	-3	2
23	3.5	0	4
24	3.3	-4	3

# Later entries:
item	SMILES	Bead autofluor	PrP 5UTR inh	Mtb hypoxia inh	Mtb hypoxia inh growth
25	NCC1CC2c3ccccc3C1c1ccccc12 (stereo unspecified)	3847	x	3	2
26	CCOC(=O)c1c(C)[nH]c(C(=O)Cn2c(=O)c3c(ncn3CC)n(Cc3ccccc3)c2=O)c1C	4634	-4	x	x
27	COCc1nc2ccccc2n1CCc1ccccc1	2972	-13	6	-11
28	Nn1c(SCC(=O)Nc2nc3ccccc3s2)nncc1=O	2679	-34	x	x
29	COCCN1C(=O)/C(=C/c2ccc(OCc3ccc(C(=O)O)cc3)c(OC)c2)SC1=Nc1ccccc1	1979	-27	6	-1
30	COc1ccc(OCC(=O)N2c3ccc(C)cc3C3CN(C)CCC32)cc1 (stereo unspecified)	2453	-1	-6	-9
31	COc1ccccc1C/C(N)=N/OC(=O)c1ccco1	2037	0	5	21
32	CC(C)C(=O)NNC(=O)c1cc2sccc2s1	4312	-7	-9	-5

item	Sa RN4220 lethal	BJeLR lethal	ugtP null kill
25	3.0	8	11
26	-3.2	1	3
27	8.5	14	13
28	x	-10	x
29	36	9	78
30	2.1	-5	9
31	3.9	4	5
32	-0.5	-17	-4

# (list continues)
item	SMILES	Bead autofluor	PrP 5UTR inh	Mtb hypoxia inh	Mtb hypoxia inh growth
33	CCn1c(NCc2cc(OC)c(OC)c(OC)c2)nc2ccccc21	3587	-10	5	7
34	COC(=O)C1=C(C(=O)OC)[C@@H]2N(C)c3ccc(OC)cc3[C@@]23C[C@@H](C(=O)OC)N(S(=O)(=O)c2ccc([N+](=O)[O-])cc2)C3=N1	4256	-6	x	x
35	Fc1ccc(C2=NN(c3ccccc3)C(c3ccco3)C2)cc1 (stereo unspecified)	5933	-3	2	0
36	Cc1cccc(C(=O)NC(NC(=S)Nc2ccc(S(N)(=O)=O)cc2)C(Cl)(Cl)Cl)c1 (stereo unspecified)	2525	-19	6	10
37	COc1ccc2c(c1)nc(N)n2Cc1ccccc1	2306	-5	x	x
38	CCS(=O)(=O)N1CCN(C(=O)c2cccnc2)CC1	4006	-10	6	10

item	Sa RN4220 lethal	BJeLR lethal	ugtP null kill
33	1.4	-5	3
34	x	1	x
35	4.4	-1	-6
36	4.1	2	10
37	x	-1	x
38	1.2	0	3
